Screening data deposited in PubChem BioAssay by Johns Hopkins Ion Channel Center.
KCNQ2 pot: potentiators of rat KCNQ2 potassium channel. CHO-K1 KCNQ2, FluxOR thallium flux fluorescence; hits give high values. O88943. B-score at 10 µM. 310,000 tested, 0.54% active;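 active = fluorescence ratio B-score at least 3 SD of library B-scores, with initial fluorescence B-score within 3 SD, cut at about 5.3 in these data; same plate scores as AID 2156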;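 also: B-score of peak minus minimum over baseline fluorescence ratio after K+ and Tl+ stimulus; positive B-score means potentiation of KCNQ2 with more thallium influx and brighter signal; only the inactives scoring about 0 or higher are listed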
Target sequence (O88943 whole entry, looked up): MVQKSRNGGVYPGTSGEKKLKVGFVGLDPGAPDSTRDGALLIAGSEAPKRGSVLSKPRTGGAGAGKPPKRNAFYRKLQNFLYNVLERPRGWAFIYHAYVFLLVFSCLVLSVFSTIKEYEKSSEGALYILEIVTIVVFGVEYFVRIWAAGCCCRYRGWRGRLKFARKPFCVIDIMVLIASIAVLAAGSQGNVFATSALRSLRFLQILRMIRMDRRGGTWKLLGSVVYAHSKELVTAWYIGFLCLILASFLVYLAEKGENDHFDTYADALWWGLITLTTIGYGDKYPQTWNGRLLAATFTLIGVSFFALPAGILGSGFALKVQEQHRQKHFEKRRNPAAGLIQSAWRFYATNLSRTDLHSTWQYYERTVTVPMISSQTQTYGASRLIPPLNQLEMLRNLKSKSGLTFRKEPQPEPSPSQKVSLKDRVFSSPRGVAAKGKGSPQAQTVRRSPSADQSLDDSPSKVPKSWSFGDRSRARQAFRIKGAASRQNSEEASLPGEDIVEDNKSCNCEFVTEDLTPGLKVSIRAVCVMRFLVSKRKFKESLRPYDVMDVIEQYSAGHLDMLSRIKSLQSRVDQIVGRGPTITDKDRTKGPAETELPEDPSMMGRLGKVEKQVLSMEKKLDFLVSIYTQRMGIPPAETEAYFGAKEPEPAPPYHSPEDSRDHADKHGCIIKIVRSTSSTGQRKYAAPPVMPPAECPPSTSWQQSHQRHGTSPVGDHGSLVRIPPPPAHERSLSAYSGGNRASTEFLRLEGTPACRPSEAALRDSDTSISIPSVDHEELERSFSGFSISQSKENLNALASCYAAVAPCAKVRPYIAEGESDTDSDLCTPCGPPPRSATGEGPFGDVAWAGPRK
KCNQ2 pot baseline: recorded beside KCNQ2 pot, whose call it bears; B-score; compound at 10 µM; measured here: initial fluorescence intensity artifact check;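 brightness before thallium and not channel activity; 0 = typical well and far values either way flag optical interference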
Numbers without * were called inactive; & = joins results of further samples. An excerpt, so the mix of outcomes need not match the whole.

Compound	KCNQ2 pot	KCNQ2 pot baseline
COc1ccc(-c2cc(C(=O)c3c(N)n(C)c(=O)n(C)c3=O)c3ccccc3n2)cc1OC	1.3	-0.45
C=Cc1ccc(C(=O)NC2CCCN(Cc3ccccc3F)C2)cc1 (configuration not stated)	0.68	1.6
CCc1nc2ccc(C(=O)NCc3ccco3)cc2nc1CC	0.34	-1.1
CC(C)OC(=O)c1ccc2nc3ccccc3nc2c1	0.02	3.4
CCOC(=O)C1CCN(S(=O)(=O)CCNC(=O)c2ccc(F)cc2)CC1	0.55	-1.1
Cc1nc2ccccn2c1C(=O)/C=C/c1cccc([N+](=O)[O-])c1	1.4	-1.3
Cc1cc(=O)[nH]c(N/N=C/c2ccc(N(C)C)cc2)n1	0.02	-0.23
O=c1nc(N/N=C/c2ccccn2)cn[nH]1	0.77	-0.2
CC1C/C(=N\NC(=O)c2ccc(NS(=O)(=O)c3ccc(Br)cc3)cc2)CC(C)(C)C1 (configuration not stated)	0.09	-0.54
COc1ccc(/C=N\n2nnc3ccccc32)cc1	0.85	0.25
Cc1cccc(CS(=O)(=O)Cc2ccc(C(=O)NCc3ccco3)o2)c1	0.32	-1.3
CC(C)=CC(=O)OCC(=O)Nc1ccc(SC(F)F)cc1	0.66	1.6
Cc1cc(C)c(CN2CCCC(CNC(=O)c3ccc(F)cc3)C2)c(-n2cccn2)c1 (configuration not stated)	0.94	-1.1
Cc1ccc(-c2nc(N)n(C(=O)c3cccs3)n2)cc1	0.74	2.2
O=C1C(=O)N(Cc2cccnc2)C(c2cccc(F)c2)/C1=C(/O)c1ccc2c(c1)OCO2 (configuration not stated)	0.82	0.6
Cc1nn(C)c(C)c1/C=C(/C(=O)C(C)C)n1cncn1	1.5	0.61
CCc1nnc(NS(=O)(=O)c2ccc(NC(=S)NC(=O)c3ccccc3)cc2)s1	0.08	-0.72
N#Cc1cccnc1N1CCN(C(=O)c2ccc3c(c2)S(=O)(=O)c2ccccc2C3=O)CC1	1.4	-0.92
CCCn1c(SCC(=O)NCc2ccccc2)n[nH]c1=O	1.4	-0.62
Cc1cc(C)c2c3c(oc2n1)C(=O)N(c1cccc(Cl)c1)CC(=O)N3	0.24	-0.15
CCOc1cc(/C=C2\C(=O)ON=C2C)ccc1OCc1ccccc1	0.98	-2.4
c1ccc(CCn2cnc3ccccc32)cc1	0.6	1.1
CCc1ccc(S(=O)(=O)Nc2ccc(Br)cn2)cc1	0.57	0.94
COc1cccc(/C=N\NC(=O)Cn2nnc3ccccc32)c1O	1.3	-0.3
CC(=O)N(C)c1ccc(OCC(O)CN(c2ccccc2C)S(=O)(=O)c2ccc(C)cc2)cc1 (configuration not stated)	0.95	-0.86

Full records as entered above. Order of screens: KCNQ2 pot | KCNQ2 pot baseline
CCc1nc2ccc(C(=O)NCc3ccco3)cc2nc1CC is listed with 0.34 | -1.1
COc1cccc(/C=N\NC(=O)Cn2nnc3ccccc32)c1O is listed with 1.3 | -0.3
COc1ccc(/C=N\n2nnc3ccccc32)cc1 is listed with 0.85 | 0.25
Cc1nn(C)c(C)c1/C=C(/C(=O)C(C)C)n1cncn1 is listed with 1.5 | 0.61
CCc1nnc(NS(=O)(=O)c2ccc(NC(=S)NC(=O)c3ccccc3)cc2)s1 is listed with 0.08 | -0.72

(listing goes on)
Compound	KCNQ2 pot	KCNQ2 pot baseline
O=c1cc(CSc2nnc3ccccn23)c2c(ccc3ccccc32)o1	0.33	-1.5
Cc1[nH]c(=O)[nH]c(=O)c1NC(=O)CSc1ncccc1-c1nc2ccccc2[nH]1	2.7	-0.69
COc1ccccc1NS(=O)(=O)c1ccc(C)c(C(=O)NCC(c2ccco2)N2CCCCC2)c1 (configuration not stated)	0.73	-0.32
Cc1ccc(Cl)cc1N1CCN(C(=O)C2CCN(c3nnc(-n4cccc4)s3)CC2)CC1	0.61	-0.65
Cc1nc(C(F)(F)F)ccc1C(=O)NCC(O)c1ccccc1 (configuration not stated)	0.44	0.1
CCS(=O)(=O)N1CCc2cc(OC)c(OC)cc2C1	0.01	0.24
O=[N+]([O-])c1cccc(/C=C/c2nc(C=Nc3ccccc3)c(O)o2)c1	2	-0.44
CCSc1nc(-c2ccccc2)nc2c1CCCC2	1.3	0.58
Cc1ccnc(SCC(=O)Nc2sccc2C#N)n1	0.03	-1.6
CC1(C)CC(=O)C2=C(C1)NC(=O)NC2c1ccccc1Cl (configuration not stated)	0.38	-0.17
O=C(NCc1ccco1)c1ccc2[nH]c(=O)c(=O)[nH]c2c1	1.1	1.8
CCOC(=O)C1(CCOc2ccccc2)CCN(CCCn2cccn2)CC1	0.58	-1.1
CCOC(=O)c1ccc(NC(=O)c2nc[nH]c2C(=O)N[C@@H](Cc2ccccc2)C(=O)OC(C)(C)C)cc1	0.73	1.9
c1ccc(CNc2ncnc3ccccc23)cc1	1.1&1.7	0.07&-3
CCN(CC)c1ccc(NC(=O)CN2C(=O)CSc3ncccc32)c(C)c1	0.63	-0.03
CCS(=O)(=O)c1ccc2oc(Nc3ccccc3Cl)nc2c1	0.06	1
Cc1ccccc1C(=O)N1CCC(n2nccc2NC(=O)C2CC2)CC1	0.64	-1.6
COc1ccc(S(=O)(=O)N2CC(O)CC2C(=O)OCc2nc3sc(C)c(C)c3c(=O)[nH]2)cc1 (configuration not stated)	0.85	0.65
O=C(NC1CCCC1)C(c1cccnc1)N(C(=O)c1csnn1)C1CC1 (configuration not stated)	2.5	-0.39
c1ccc(-c2nccc(-c3ccc(-n4cnc5ccccc54)cc3)n2)cc1	1	0.59
CSc1ccc(CCNC(=O)Cn2ncc3c([nH]c4ccccc43)c2=O)cc1	1.4	-3.8
CCOc1ccc(NC(=O)CNC(=O)c2ccc(OC)c(OC)c2)cc1	0.88	-0.73
CN(CC(=O)Nc1ccc(Cl)c(C(F)(F)F)c1)C(=O)Cc1cccs1	1.3	0.75
COc1ccc(CN2CCC(n3nccc3NC(=O)C3CC3)CC2)c(Cl)c1OC	0.37	0.04
Cc1ccc(C(=O)N2CCN(S(=O)(=O)c3ccccc3[N+](=O)[O-])C2)cc1	0.53	-0.85
CC(C)c1ccc(NCCC(=O)c2ccc(Br)cc2)cc1	0.03	-0.89
CSc1ncc(C(=O)Nc2ccc(Cl)cc2)c(C)n1	0.32	4.6
O=C(/C=C/c1ccccc1)NC(=S)Nc1ccc(N2CCOCC2)c(Cl)c1	0.39	0.26
O=C(N/N=C/c1cccc(Br)c1)c1ccc(Br)cc1	0.22	-1.6
c1ccc2nc3ccccc3nc2c1	0.79	0.06
O=C(CCCOc1ccc(Cl)cc1Cl)N/N=C/c1ccco1	2.6	-1.6
Cc1ccc(O)c(C(CC(=O)NCc2ccco2)c2ccccc2)c1 (configuration not stated)	16*	-1.5*
CCOC(=O)c1[nH]c(C)c(C(=O)Nc2ccc(Cl)cc2)c1C	0.83	-1.2
CCN(CC)CCNC(=O)c1ccc(NC(=O)Cc2ccccc2F)cc1	0.68	0.38
Cc1ccc(NS(=O)(=O)c2csc(C(N)=O)c2)cc1C	0.05	0.55
N/C(=N\OC(=O)CCCN1C(=O)c2ccccc2C1=O)c1ccc(Cl)cc1	1.9	-2.5
CC(=O)Nc1cccc(NC(=O)COc2ccccc2C)c1	2.5	-3
COc1ccc(-c2ccc(=O)n(CC(=O)NCC3COCCO3)n2)cc1 (configuration not stated)	0.89	0.04
Cc1cc(C)c(S(=O)(=O)NC2CC2)c(C)c1	0.69	-0.54
CCOC(=O)N1CCN(C2CCCN(C(=O)c3cccc(N(C)C)c3)C2)CC1 (configuration not stated)	1.6	0.84
O=C(CN1C(=O)S/C(=C\C=C\c2ccccc2)C1=O)Nc1cccc(O)c1	0.62	-0.05
COc1ccccc1-n1c(SCC(=O)Nc2ccc(Br)cc2)nc(O)cc1=O	0.47	0.29
CC1CN(C(=O)CCC(=O)N2CCN(c3ccccn3)CC2)c2ccccc2O1 (configuration not stated)	1.6	0.05
N#Cc1c(N2C(=O)Nc3ccccc3N2O)sc2c1CCCCCC2	3	-1.6
Cc1cc(OCC(=O)NCCCN2CCCC2=O)c2c(C)c(C)c(=O)oc2c1	0.92	-0.2
COc1ccc(Cc2nnc(SCC(=O)Nc3ccccc3C#N)o2)cc1	1.9	-0.07
COc1ccc(S(=O)(=O)N(C)c2ccc(C(=O)N3CCCC3)cc2)cc1	0.73	-0.13
COc1ccc(OCC(=O)Nc2ccc3c(c2)nc(CCn2ccccc2=O)n3C)cc1	0.36	-0.26
Cc1ccccc1OCC(=O)N/N=C/c1cn(Cc2ccccc2)c2ccccc12	0.05	0.78
CCc1nnc(NC(=O)CSCc2cc(=O)n3nc(C)sc3n2)s1	0.81	0.02

Brought forward from above: 4 compounds; new compounds follow.
Compound	KCNQ2 pot	KCNQ2 pot baseline
COc1ccc(S(=O)(=O)N(C)c2ccc(C(=O)N3CCCC3)cc2)cc1	0.73	-0.13
COc1ccc(OCC(=O)Nc2ccc3c(c2)nc(CCn2ccccc2=O)n3C)cc1	0.36	-0.26
Cc1ccccc1OCC(=O)N/N=C/c1cn(Cc2ccccc2)c2ccccc12	0.05	0.78
CCc1nnc(NC(=O)CSCc2cc(=O)n3nc(C)sc3n2)s1	0.81	0.02
Cc1ccc(C(=O)OCC(=O)N2CCC(Cc3ccccc3)CC2)cc1N	1.8	-0.61
Cc1ccc(NC(=O)c2ccc(S(=O)(=O)N3CCCCC3)cc2)cc1	0.68	1.4
O=C(CCN1C(=O)/C(=C/c2ccccc2Cl)SC1=S)N1CCCC1	0.67	-1.4
O=C(CN1C(=O)COc2ccccc21)Nc1ccc(F)cc1	0.1	1.7
CC(Sc1nccn1C)C(=O)c1c(N)n(C)c(=O)n(C)c1=O (configuration not stated)	0.23	0.3
COC(=O)c1cccc(NC(=O)/C=C/c2cccc([N+](=O)[O-])c2)c1	1.7	0.03
CC1CCCC(C)N1C(=O)CSc1nc2ccccc2c(=O)[nH]1 (configuration not stated)	0.23	-1.3
O=S(=O)(N/N=C/c1ccc(F)cc1)c1ccccc1	0.35	0.03
CCC(C)[C@H]1CNC(=O)C(=O)N1CCCc1cc(OC)c(OC)c(OC)c1 (some centres not stated)	0.2	-0.64
O=C(CSc1nnnn1C1CCCCC1)NCCc1ccccc1	0.31	-0.77
CCO/C=C1\C(=O)N(CC)c2ccccc21	0.14	-1.4
CCOc1ccc2nc(SCC(=O)NC3CCCCC3)[nH]c2c1	0.51	0.94
CCOC(=O)CSc1nnc(C)c(=O)[nH]1	0.04	-0.03
CCN(CC)S(=O)(=O)c1cccc(-c2nnc(SCC(=O)NCCC3=CCCCC3)n2N)c1	0.85	-0.13
CCCc1nc(N)c(C#N)c(-c2ccco2)c1CC	0.03	1.9
NC(=O)CC(NC(=O)Cc1ccc(Cl)cc1)c1ccc(NC2CCCCCCC2)c([N+](=O)[O-])c1 (configuration not stated)	0.69	0.18
COc1ccc(C(=O)NCc2cnn(C)c2)cc1OC1CCN(C(C)C)CC1	1	0.63
CCC1CCCCN1C(=O)Nc1ccc(F)cc1 (configuration not stated)	0.79	-0.13
CC(C)(C)C(=O)Nc1ccc(S(=O)(=O)N2CCC(c3nc4ccccc4[nH]3)CC2)cc1	0.46	-1.6
CCS(=O)(=O)N1Cc2ccccc2CC1C(=O)Nc1ccc(F)c(F)c1F (configuration not stated)	0.63	0.31
COCCCNC(=S)NNC(=S)Nc1ccccc1	0.37	-0.42
CC(=O)c1sc(NC(=O)c2ccc(C)c(C)c2)nc1C	0.56	0.55
CCN(CC)c1ccc(NC(=O)CCN2C(=O)c3ccccc3S2(=O)=O)c(C)c1	1.1	-1.3
CCOC(=O)C(C)n1nc(/C=C/c2ccc(OC)cc2)ccc1=O (configuration not stated)	0.21	-1.5
O=C(NCCCn1ccnc1)c1cc2ccccc2o1	0.02	2.4
Cc1ccc(S(=O)(=O)Nc2nncs2)cc1	2.1	-1.5
C/C(CC(=O)Nc1ccc2c(c1)OCO2)=N\NC(=O)c1ccc(N)cc1	1.1	-3
CC(=O)N(/N=C/c1ccc([N+](=O)[O-])o1)c1nc2ccccc2c(=O)n1-c1ccccc1	0.55	-0.78
O=C(COc1ccc(S(=O)(=O)N2CCOCC2)cc1)N1CCc2ccccc2C1	1.1	-0.86
Cc1cc(=O)n2[nH]c(SCc3c(F)cccc3Cl)nc2n1	0.84	-0.54
Cc1ccc(NC(=S)N2CCC(N(C)CC3CCCO3)CC2)c(C)c1 (configuration not stated)	0.16	-1.4
CCn1c(CCNC(=O)c2ccco2)nc2ccccc21	0.98	0.27
COc1ccc(C(=O)NCc2nnc(SCC(=O)Nc3ccccc3OC)o2)cc1	1.8	1.7
